TRPML1 inh: qHTS for Inhibitors of the Human Mucolipin Transient Receptor Potential 1 (TRPML1) | TRPML1-inducible cells, Ca2+ dye fluorescence, FDSS; stronger effect = lower value; inhibition of EC80 agonist-evoked calcium signal | AID 624415, 2012 | activity change, negative = inhibition, % (test concentration not listed) | Mucolipin-1 (Homo sapiens), Q9GZU1 | actives 0.02% (n = 390,000); in the data active means activity change below about -50%; inconclusive means about -30% to -50%; inactive means above about -30%;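 also: stimulus is agonist 54-4 at its EC80 concentration; % is scaled to controls: 0 for no effect and ±100 for the full control effect; compound concentration not given in the record; the text of the record puts the active cut at -80%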
Target sequence (Q9GZU1 whole entry, looked up): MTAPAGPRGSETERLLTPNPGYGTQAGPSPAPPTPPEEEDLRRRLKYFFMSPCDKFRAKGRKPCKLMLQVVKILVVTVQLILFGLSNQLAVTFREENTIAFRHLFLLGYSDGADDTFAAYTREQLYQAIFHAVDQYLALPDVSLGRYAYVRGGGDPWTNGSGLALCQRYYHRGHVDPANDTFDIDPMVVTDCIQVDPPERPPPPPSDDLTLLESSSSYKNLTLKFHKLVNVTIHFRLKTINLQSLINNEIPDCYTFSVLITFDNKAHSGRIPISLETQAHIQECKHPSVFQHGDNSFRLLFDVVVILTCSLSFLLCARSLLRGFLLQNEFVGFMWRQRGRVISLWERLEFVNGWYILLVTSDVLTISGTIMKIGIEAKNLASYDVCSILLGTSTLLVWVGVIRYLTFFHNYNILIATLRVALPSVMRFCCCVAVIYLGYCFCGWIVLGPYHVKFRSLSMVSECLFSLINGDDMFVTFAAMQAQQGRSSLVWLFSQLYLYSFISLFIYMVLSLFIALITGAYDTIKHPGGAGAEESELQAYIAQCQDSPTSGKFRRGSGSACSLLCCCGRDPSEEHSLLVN
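Calcium fluorescence in TRPML1-DL cells induced overnight with Tet: a 110 s read after compound pin addition, then a 110 s antagonist read after challenge with 54-4 at 4 uM final (EC80).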
ClpP mod: qHTS Assay for Activators of ClpP; AID 651965, 2013; actives 1.9% (n = 340,000); ATP-dependent Clp protease proteolytic subunit (Bacillus subtilis (strain 168)), P80244; Potency, µM (series often up to 57.5 µM), for the others: top-dose activity change, negative = active; purified B. subtilis ClpP, FRET peptide cleavage, 20 min; active = well fitted falling curve with a large enough effect; inconclusive = small, poorly fitted or top-dose-only effect; inactive = no such curve, though single readings can be large or run the other way; also: potency is read from the fitted curve at half-maximal effect; the source files actives as falling curves though it sought activators and does not explain the sign; nearly all actives have a fitted effect of over 65% in size; many hits overshoot -100%
Target sequence (P80244 whole entry, looked up): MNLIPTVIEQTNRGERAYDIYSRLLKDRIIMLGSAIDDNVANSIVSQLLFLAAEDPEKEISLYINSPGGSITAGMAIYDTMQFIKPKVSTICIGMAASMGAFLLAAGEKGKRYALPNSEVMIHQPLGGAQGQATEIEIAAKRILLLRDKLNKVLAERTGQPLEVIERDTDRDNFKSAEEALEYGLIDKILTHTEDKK
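FRET quenching reversal measured ClpP activation: 10 microg/mL B. subtilis ClpP at pH 8 with the FRET-FV decapeptide, read at 430 nm after 320 nm excitation. The 20-min minus 0-min signal was scaled between DMSO/no-enzyme wells and ADEP (5.8 microM final).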
Sfp PPTase inh: qHTS Assay for Inhibitors of Bacillus subtilis Sfp phosphopantetheinyl transferase (PPTase); actives 3.5% (n = 310,000); Biochemical Sfp PPTase activity, qHTS; Potency, µM, without a hit: max response, negative = inhibition, usual class: inhibitors; active = well fitted inhibition curve with a large enough effect; inconclusive = small, poorly fitted or top-dose-only effect, or another doubt; inactive = no such curve, though single readings can be large or run the other way;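 also: the enzyme is Sfp with the accession as filed and its product quenches rhodamine fluorescence; potency is read from the fitted curve at half-maximal effect; 0% = enzyme reaction without inhibitor and -100% = no enzyme wells; top concentration of the series not given in the record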
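Fluorescence-quenching assay with 15 nM Sfp, 5 uM rhodamine-CoA and 12.5 uM BHQ-2-labelled ybbR peptide in pH 7.6 Hepes/MgCl2 buffer. Enzyme was pre-incubated with compound for 15 min at room temperature. Rate was taken from the 30-min fluorescence change (525/598 nm).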
PINK1 modulator: A Quantitative High throughput Screen to Identify Chemical Modulators of PINK1 Expression | PINK1 immunofluorescence, high-content cytometry, 24 h | Potency, µM (top dose mostly 76.6 µM), inactives show top-dose activation (PINK1 increase), most hits filed as activators | actives 0.2% (n = 410,000) | AID 624263, 2012; active = well fitted activation curve with a large enough effect; inconclusive = small, poorly fitted or top-dose-only effect; inactive = flat fitted curve, though single readings scatter; cell line not stated here;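 also: potency is read from the fitted curve at half-maximal effect; % of control where 0% means no effect; nearly all actives have a fitted effect of over 65% in size; a mitochondrial uncoupler was the plate control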
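Stable cell line treated 24 h with compounds at 5 concentrations (CCCP controls), then fixed and immunostained for PINK1 plus nuclear and cell stains; PINK1 immunofluorescence quantified by laser-scanning microplate cytometry.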
TRPML1 agonist: qHTS for Agonists of the Human Mucolipin Transient Receptor Potential 1 (TRPML1). activation, % (test concentration not listed). actives 0.12% (n = 410,000). TRPML1-expressing cells, Ca2+ dye fluorescence, FDSS; host cell line not named in the record; reference of the full effect not given here. AID 624414, 2012; in the data active = activation above about 50%; inconclusive = about 30% to 50%; inactive = below about 30%; also: 0% is about no effect; the text of the record puts the active cut at 80%
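TRPML1-DL cells, Tet-induced overnight (~16 h, 37 degrees C), loaded 45-90 min at room temperature with Ca8 no-wash calcium dye plus quencher. FDSS fluorescence: 10 s baseline, compound pin-transfer, 110 s agonist read, then EC80 54-4 (4uM final) and 110 s antagonist read.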
TRPV1 PAM: HTS Assay for Compounds that Act as Potentiators of the Vanilloid Receptor 1; TRPV1-expressing cells, Fluo-8 calcium influx, capsaicin EC20 potentiation; host cell line not named in the record; control for the full effect not named in the record; potentiation, % at 8.33 µM; actives 0.02% (n = 320,000); active means potentiation above 80%; inconclusive means 30% to 80%; inactive means below 30%; also: 0% is about no effect
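Fluo-8 calcium influx in TRPV1-expressing cells, kinetic read (ex 480/em 520 nm). Compound added and read 3 min for agonist activity, followed by capsaicin at EC20 final and 2 min further read for enhancement.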
Menin MLL FP FL: qHTS Assay for Inhibitors Targeting the Menin-MLL Interaction in MLL Related Leukemias: Competition With Fluorescein Labeled MLL-derived Peptide | Fluorescence polarization, fluorescein-MLL peptide displacement from menin | FP activity change, % at 61.4 µM | 290,000 tested, under 10 active | AID 1766, 2009; inconclusive = falling polarisation curve, or a change in total fluorescence; inactive = total fluorescence flat and polarisation flat or rising; no compound was filed as active; the % refers to the polarisation; negative = inhibition;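 also: % of control where 0% means no effect; inhibitors lower the polarisation; unlabelled MLL peptide was the positive control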
The depositor's hits bear a star; [ ] = another dose, or the depositor's remark.

Screening Cc1ccccc1-c1cc(C(=O)NCC2CC2)n(CC2CC(c3cccnc3)=NO2)n1 (configuration not stated) returned TRPML1 inh -10, ClpP mod -1.4%, PINK1 modulator -0.1%, TRPML1 agonist 1.5 and TRPV1 PAM -3.
CCOc1ccc(CCN2C(=S)N([C@@H](Cc3ccccc3)CN3CCC[C@@H]3CN3C(=S)NC[C@@H]3CC(C)C)C[C@@H]2Cc2ccccc2)cc1 was read as ClpP mod 0.9%, PINK1 modulator 1.8% and TRPML1 agonist -0.6.
Screening CS(=O)(=O)N1CCCCC1c1cc(C(=O)Nc2ccccc2Cl)no1 (configuration not stated) returned ClpP mod -3.0%, PINK1 modulator 0.4% and TRPML1 agonist -0.6.
Cc1c(C2Nc3ccccc3C(=O)N2O)cnn1C (configuration not stated) was read as TRPML1 inh -7, ClpP mod -6.1%, Sfp PPTase inh 1%, PINK1 modulator -1.0%, TRPML1 agonist -0.5, TRPV1 PAM 27 and Menin MLL FP FL 2.7.
Screening N/C(=N\O)C1COc2ccccc2O1 (configuration not stated) returned TRPML1 inh 8, ClpP mod -1.6%, Sfp PPTase inh 9%, PINK1 modulator -2.9%, TRPML1 agonist -1.3, TRPV1 PAM 12 and Menin MLL FP FL -2.4.
`CCCCC(=O)NC(c1ccco1)c1cc(Cl)c2cccnc2c1O` (configuration not stated) gave TRPML1 inh 2, Sfp PPTase inh 3%, PINK1 modulator 5.4%, TRPML1 agonist 11, TRPV1 PAM 3 and Menin MLL FP FL 2.8.
For Nc1ncnc2nc(SCCC(=O)O)[nH]c12 the results were ClpP mod -3.9%, Sfp PPTase inh 18%, PINK1 modulator 2.3%, TRPV1 PAM 0 and Menin MLL FP FL 8.8.
O=C(O)CCNC(=O)c1ccc(NC(=O)C(c2ccccc2)c2ccccc2)cc1 was read as TRPML1 inh -5, ClpP mod -0.7%, Sfp PPTase inh 12%, PINK1 modulator 0.2%, TRPML1 agonist -0.6, TRPV1 PAM inconclusive and Menin MLL FP FL -2.1.
For COCc1[nH][nH]c(=O)c1C=Nc1ccccc1 the results were TRPML1 inh 4, ClpP mod 1.6%, Sfp PPTase inh 2%, PINK1 modulator -1.9%, TRPML1 agonist 0.1, TRPV1 PAM -3 and Menin MLL FP FL 3.1.
For Cc1ccc(C)c(Nc2c(F)c(F)c(F)c(F)c2C(=O)O)c1 the results were TRPML1 inh -19, Sfp PPTase inh 5%, PINK1 modulator 1.7%, TRPML1 agonist -0.6, TRPV1 PAM 3 and Menin MLL FP FL 0.4.
Screening O=C(CN1C(=O)S/C(=C\c2cc(Cl)c(O)c(Cl)c2)C1=O)Nc1ccccc1 returned TRPML1 inh 19, Sfp PPTase inh 6%, PINK1 modulator 0.5%, TRPML1 agonist 18, TRPV1 PAM 5 and Menin MLL FP FL inconclusive.
COc1ccccc1NC(=O)c1c[nH]c2ccccc12 was read as TRPML1 inh -14, ClpP mod 2.0%, Sfp PPTase inh 11%, PINK1 modulator 0.2%, TRPML1 agonist 1.0, TRPV1 PAM 1 and Menin MLL FP FL -0.4.
O=C(NC1=NCCS1)c1csc2ccccc12 was read as TRPML1 inh -8, ClpP mod -26%, Sfp PPTase inh -4%, PINK1 modulator 1.8%[38.3 µM], TRPML1 agonist -0.3, TRPV1 PAM -6 and Menin MLL FP FL -0.5.
`COC(=O)c1cccc(NC(=O)c2ccc3c(c2)C(=O)N(Cc2cccnc2)C3=O)c1C` gave TRPML1 inh 22, ClpP mod 3.6%, Sfp PPTase inh -9%, PINK1 modulator 0.0%, TRPML1 agonist 1.7 and TRPV1 PAM 3.
COc1cccc(CNC(=O)c2ccc(S(=O)(=O)N3CCCCC3)cc2)c1 was read as TRPML1 inh 1, ClpP mod -1.7%, PINK1 modulator 0.2% and TRPML1 agonist -0.4.
Screening CC(=O)Oc1oc(-c2ccccc2)nc1/C=N/c1ccccn1 returned TRPML1 inh 10, ClpP mod -3.9%, Sfp PPTase inh inconclusive, PINK1 modulator -3.7%[38.3 µM], TRPML1 agonist 0.8, TRPV1 PAM 3 and Menin MLL FP FL -1.0.
Screening Cn1c(=O)c(=O)n(C)c2cc(N3CCOCC3)c(NS(=O)(=O)c3ccc(Cl)cc3)cc21 returned TRPML1 inh -15, ClpP mod inconclusive, PINK1 modulator 2.9% and TRPML1 agonist -0.6.
`Fc1cccc(Cl)c1/C=N/Nc1ccccn1` gave TRPML1 inh 9, ClpP mod 0.2%, Sfp PPTase inh 8%, PINK1 modulator 0.5%, TRPML1 agonist -0.9, TRPV1 PAM 13 and Menin MLL FP FL 2.7.
COc1ccccc1CC1(C)C(=O)Nc2ccc(S(=O)(=O)NC3CCCCC3)cc21 (configuration not stated) was read as ClpP mod -23%, PINK1 modulator 0.0% and TRPML1 agonist -0.2.
`CC1CCCN(c2csc3ccc(F)cc3c2=O)C1` (configuration not stated) gave TRPML1 inh 36, ClpP mod -18%, PINK1 modulator 2.1% and TRPML1 agonist 1.2.
CCCc1c(C(=O)N/N=C/c2ccc(C)s2)nnn1-c1nonc1N was read as TRPML1 inh -7, ClpP mod -1.9%, Sfp PPTase inh 22%, PINK1 modulator 2.3%, TRPML1 agonist -0.6, TRPV1 PAM 30 and Menin MLL FP FL 0.1.
`Cc1cc2nc(C3CCCCC3)c(Cc3cccc(F)c3)n2c(C)c1Br` gave ClpP mod -2.0%, PINK1 modulator 11% and TRPML1 agonist 0.3.
Screening CCOC(=O)C1=CCN(S(=O)(=O)c2cccc(Cl)c2)C1c1cccc(C)c1 (configuration not stated) returned TRPML1 inh -10, ClpP mod 0.6%, PINK1 modulator 8.5% and TRPML1 agonist 9.7.
COc1cc(C(C(=O)NC(C)(C)C)N(C(=O)CNC(=O)c2cccs2)c2ccccc2)cc(OC)c1OC (configuration not stated) was read as TRPML1 inh -12, ClpP mod -0.2%, Sfp PPTase inh -1%, TRPML1 agonist -0.7, TRPV1 PAM 2 and Menin MLL FP FL -0.8.
For Cc1ccc(N(O)C(=O)OCCNC(=O)Nc2ccccc2)cc1 the results were TRPML1 inh 16, ClpP mod -0.1%, Sfp PPTase inh 5%, PINK1 modulator 3.7%, TRPML1 agonist 1.2, TRPV1 PAM 2 and Menin MLL FP FL -0.4.
For Cc1cc(=O)oc2c(C)c(OCC(=O)NCCCN3CCOCC3)ccc12 the results were TRPML1 inh 6, ClpP mod 3.8%, Sfp PPTase inh 10%, PINK1 modulator -1.1%, TRPML1 agonist 1.6, TRPV1 PAM 0 and Menin MLL FP FL -1.9.
For CCN(CC)S(=O)(=O)c1ccc(C(=O)N2CCN(C3=NS(=O)(=O)c4ccccc43)CC2)cc1 the results were TRPML1 inh 16, ClpP mod -0.3%, Sfp PPTase inh 15%, PINK1 modulator 1.2%, TRPML1 agonist 0.3 and TRPV1 PAM 0.
COCc1c(C(=O)N2CCN(Cc3ccc(C#N)cc3)CC2)oc2ccccc12 was read as TRPML1 inh 42, Sfp PPTase inh 10%, PINK1 modulator 2.6%, TRPML1 agonist 0.2, TRPV1 PAM 1 and Menin MLL FP FL 2.1.
CCCCCCc1nnc(NC(=O)OCC)s1 was read as TRPML1 inh -9, ClpP mod -1.2%, Sfp PPTase inh 5%, PINK1 modulator 7.6%[38.3 µM], TRPML1 agonist -0.7, TRPV1 PAM -13 and Menin MLL FP FL 6.1.
`O=C(c1ccco1)N1CCN(c2ccc(Cl)cc2)CC1` gave TRPML1 inh 10, ClpP mod -2.2%, Sfp PPTase inh 8%, PINK1 modulator -1.1%, TRPML1 agonist 1.2, TRPV1 PAM -23 and Menin MLL FP FL 2.6.
`CC(=O)Nc1ccccc1C(=O)C(=O)Nc1ccc(F)cc1` gave TRPML1 inh -10, ClpP mod 0.1%, Sfp PPTase inh 20%, PINK1 modulator 18%[38.3 µM], TRPML1 agonist -0.1, TRPV1 PAM 4 and Menin MLL FP FL -1.9.
`CCn1c(SCC(=O)Nc2nc(C)cs2)nnc1-c1ccco1` gave TRPML1 inh -13, ClpP mod -1.2%, Sfp PPTase inh 0%, PINK1 modulator 2.6%, TRPML1 agonist -1.0, TRPV1 PAM 22 and Menin MLL FP FL -0.2.
`S=C(NCc1ccccc1Cl)Nc1ccccc1Cl` gave TRPML1 inh 22, ClpP mod -0.7%, Sfp PPTase inh 19%, PINK1 modulator 1.0%, TRPML1 agonist 3.2, TRPV1 PAM -2 and Menin MLL FP FL -3.1.
Screening CC1CCCCN1CCCNC(=O)Cn1ncc2c3ccccc3n(Cc3ccccc3)c2c1=O (configuration not stated) returned TRPML1 inh -3, ClpP mod -18%, PINK1 modulator 1.0% and TRPML1 agonist 2.5.
For O=C(c1ccccc1)c1ccncc1 the results were TRPML1 inh 21, ClpP mod -1.8%, Sfp PPTase inh 8%, PINK1 modulator 0.7%, TRPML1 agonist -0.2 and Menin MLL FP FL 0.8.
Screening CCOc1ccccc1CNC(=O)Cn1c(-c2ccccc2)cc(C(C)=O)c1C returned TRPML1 inh -4, ClpP mod -1.1%, PINK1 modulator 1.8% and TRPML1 agonist -1.5.
`S=C(NCCc1ccccc1)NN=C1CCCCCC1` gave TRPML1 inh 21, Sfp PPTase inh 18%, PINK1 modulator 0.9%, TRPML1 agonist 0.2, TRPV1 PAM inconclusive and Menin MLL FP FL -4.4.
COc1ccc(NCCNc2ccc(OC)cc2)cc1 was read as TRPML1 inh 4, ClpP mod -2.4%, Sfp PPTase inh -3%, PINK1 modulator 7.4%[38.3 µM], TRPML1 agonist -0.2 and Menin MLL FP FL -13.
Screening Cc1ccc(NC(=O)c2cccc(NC(=O)/C=C/c3ccco3)c2)cc1C returned TRPML1 inh 9, ClpP mod -4.9%, Sfp PPTase inh 2%, PINK1 modulator 9.0%, TRPML1 agonist 2.0, TRPV1 PAM 9 and Menin MLL FP FL 9.1.

Screening data as filed in PubChem BioAssay.
